# Rango complex inh – inhibitors of Rango-importin beta complex formation; Rango CFP/YFP FRET sensor + importin beta, 45 min; 340,000 compounds, 0.031% hits; Potency, µM (doses to about 92.2 µM), for inactives: at the top dose inhibition of complex formation; Q14974; active = rising FRET ratio curve, often small or poorly fitted; inconclusive = mostly compound fluorescence or quenching in the first reads; inactive = flat curves in all reads;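 also: potency is read from the fitted curve at half-maximal effect; 0% = DMSO wells and 100% = buffer wells lacking importin beta; nearly all actives have a fitted effect of over 15% in size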
#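 FRET biosensor (snurportin 1 IBB flanked by EYFP and cerulean), 50 nM, with compound 5 min, then 0.125 microM importin beta in PBS, 1 mM DTT, 0.02% Tween-20, 0.1% BSA. CFP/YFP ratio read after 45 min at room temperature; pre-read flags interference.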
# GLA inh pH 4.5 – alpha-galactosidase A (human) inhibition, pH 4.5; P06280; purified enzyme, 4-MU-alpha-Gal fluorescence, pH 4.5; activity change, negative = inhibition, % at 105 µM; 230,000 tested, under 10 active; inconclusive = small, poorly fitted or top-dose-only inhibition, or a rising curve; inactive = flat fitted curve, though single readings scatter; no compound was filed as active;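 also: 0% = full activity with enzyme and -100% = basal without enzyme; dose as in the result columns while the protocol names 77 µM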
# Target sequence (P06280 whole entry, looked up): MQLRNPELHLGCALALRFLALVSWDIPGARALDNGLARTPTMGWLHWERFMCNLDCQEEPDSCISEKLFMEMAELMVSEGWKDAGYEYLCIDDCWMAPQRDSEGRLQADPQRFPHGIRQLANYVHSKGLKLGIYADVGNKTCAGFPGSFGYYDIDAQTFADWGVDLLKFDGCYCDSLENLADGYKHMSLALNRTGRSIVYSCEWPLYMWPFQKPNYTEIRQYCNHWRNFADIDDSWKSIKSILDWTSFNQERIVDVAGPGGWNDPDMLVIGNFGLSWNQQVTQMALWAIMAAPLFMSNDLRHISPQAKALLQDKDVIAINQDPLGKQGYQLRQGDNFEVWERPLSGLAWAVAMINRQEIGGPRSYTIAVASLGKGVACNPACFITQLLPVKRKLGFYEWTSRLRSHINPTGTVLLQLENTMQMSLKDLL
# miR-21 FLuc – raises the signal of a miR-21 reporter; HeLa miR-21 FLuc reporter, luciferase, 48 h; Potency, µM (top dose mostly 38.3 µM), without a hit: at the highest dose reporter change, positive = more light; 340,000 tested, under 10 active; active = well fitted rising curve with a large enough effect; inconclusive = small, poorly fitted or top-dose-only effect; inactive = no such curve, though single readings can be large or run the other way;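 also: % of control where 0% means no effect; miR-21 action dims this reporter so a rising signal means less miR-21 action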
#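 HeLa miR-21-FLuc reporter line, endogenous miR-21; 2000 cells/well in DMEM/10% FBS; compound titration up to ~40uM final, 48 h, 37 degree Celsius; luciferase detection reagent, 15 min lysis, CCD luminescence.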
# Rango dissoc inh – prevents RanGTP from dissociating the Rango-importin beta complex; O95149+P62826; Biochemical FRET Rango-importin beta, RanGTP-induced dissociation; Potency, µM (titrated, usually from 46.1 µM), inactives show top-dose activity change, negative = inhibition; 340,000 compounds, 0.071% hits; AID 540253; active means falling FRET ratio curve, often poorly fitted, with flat reads before Ran was added; inconclusive means other falling curves, or compound fluorescence or quenching; inactive means flat or rising ratio curve;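 also: potency is read from the fitted curve at half-maximal effect; % of control where 0% means no effect; nearly all actives have a fitted effect of over 45% in size; -100% = wells without RanGTP and RCC1; the record marks most hits as doubtful in a second field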
#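 Compounds preincubate 5 min with complex of recombinant Rango and importin beta in PBS with 1 mM DTT. Ran (0.6 uM) loaded with 2 mM GTP plus 0.2 uM RCC1 starts dissociation; FRET is recorded 45 min later.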
# An asterisk follows results filed as active; ? = inconclusive; / = not tested or not shown; & = joins results of further samples; [ ] = remark or other dose. A portion of the library; the hit share may differ from the screen's.
no.	Rango complex inh	GLA inh pH 4.5	miR-21 FLuc	molecule	Rango dissoc inh
1	-0.2%	-3	-1%	O=C(Cc1cccc(C(F)(F)F)c1)NCC(c1ccco1)N1CCCCC1 (stereo unspecified)	-15%
2	0.8%	?	-54%	O=c1cccc2n1Cc1cc3ccccc3nc1-2	5%
3	/	0	-3%	O=C1CN(c2nc(-c3ccccc3)c3cc(Br)ccc3n2)c2ccccc2N1	/
4	3.3%	-6	5%	Clc1ccc(C(c2ccccc2)N2CCNCC2)cc1 (stereo unspecified)	-3%
5	0.0%	7	1%	CC1CCc2sc(NC(=O)C3CC(Cl)=CCC3C(=O)O)c(C#N)c2C1 (stereo unspecified)	1%
6	-2.8%	-11	-28%	CN(C)c1c(F)cc(-c2nn[nH]n2)cc1F	-11%
7	0.6%	1	-10%	CCOC(=O)n1c(=O)n(C)c2ccc(Cl)cc21	1%
8	4.1%	-10	23%	COc1cccc(-c2cc(C(=O)Nc3cc(OC)c(OC)c(OC)c3)no2)c1	19%
9	-3.0%	-17	-5%	N=C1C(c2nc(-c3cccc([N+](=O)[O-])c3)cs2)=C(O)CN1NC(=O)c1ccco1	8%
10	-0.5%	/	-2%	O=S(=O)(NCC(c1cccnc1)N1CCN(Cc2ccccc2)CC1)c1cc(F)ccc1F (stereo unspecified)	0%
11	2.4%	-11	-3%	CCOC(=O)N1CCN(S(=O)(=O)c2cccc3ccc(C)nc23)CC1	-10%
12	-0.8%	11	-3%	CCOC(=O)c1c(NC(=O)CN2CCCCC2)sc(C)c1C	-3%
13	1.7%	-15	-5%	Cc1cc(NC(=O)CCC(=O)N(CC(=O)NCC2CCCO2)c2ccc3c(c2)OCCO3)no1 (stereo unspecified)	6%
14	1.7%	0	17%	COc1cc2c(cc1NC(=O)C(C)Sc1ccc(NC(C)=O)cc1)oc1ccccc12 (stereo unspecified)	8%
15	-2.2%	/	/	O=C(CSc1nccc(=O)[nH]1)NC1CCCCCC1	11%
16	0.2%	-2	-13%	COc1ccccc1-n1cnc2c(c1=O)c1nc3ccccc3nc1n2CCc1ccccc1	-4%
17	0.8%	-2	0%	Cc1cc(S(=O)(=O)n2cnc3cc([N+](=O)[O-])ccc32)ccc1Cl	8%
18	4.2%	0	-9%	CN(C)c1cccc(C(=O)Nc2cc(C(F)(F)F)ccc2-n2cnc3ccccc32)c1	-7%
19	1.3%	3	-7%	Cc1nc(SCC(=O)NCCc2ccc(Cl)cc2)nc(C)c1C	-8%
20	-2.3%	/	/	CC(=O)Nc1ccc(NC(=O)C(C)Sc2nnc(C3CC3)n2-c2ccccc2)cc1 (stereo unspecified)	8%
21	-0.8%	/	1%	CCOc1ccc(C(=O)Nc2nnc(SCC(=O)NCC3CCCO3)s2)cc1OCC (stereo unspecified)	-1%
22	-0.8%	16	-14%	Cc1nn(-c2ccccc2)c2sc(-c3n[nH]c(=S)o3)cc12	-5%
23	-2.0%	-3	-2%	Cc1nn(CC(=O)OCC(=O)Nc2ccccc2[N+](=O)[O-])c(C)c1[N+](=O)[O-]	-4%
24	-3.1%	7	-5%	CCCn1nc2cc(C(=O)NC3CCCc4ccccc43)ccc2c1OCC (stereo unspecified)	-6%
25	-2.9%	-12	-52%	O=C(/C=C/c1ccc(Cl)cc1Cl)NC(=S)Nc1ccccn1	-10%
26	0.0%	1	?	O=C(CCl)NCc1c(Cl)cccc1-n1cccc1	6%
27	-3.1%	3	0%	CC(c1ccccc1)N(NC(=O)C(O)(c1ccccc1)c1ccccc1)C(=O)c1ccccc1 (stereo unspecified)	-3%
28	-3.8%	0	-16%	COc1ccc(C2N(c3ccc(OC)cc3)C(=O)C3CCCN32)cc1 (stereo unspecified)	10%
29	2.0%	-3	-5%	COc1ccc(OC)c(C2=Nn3c(nnc3C3CCCCC3)SC2)c1	-15%
30	0.7%	/	/	O=C(O)c1cccc2c1C(=O)c1ccc(-c3ccc(OC(F)(F)F)cc3)cc1S2(=O)=O	-13%
31	0.0%	-2	-21%	OCCCNc1ncnc2c1[nH]c1ccccc12	3%
32	0.0%	-1	-1%	Cc1ccc(S(=O)(=O)N(C)C)cc1NC(=O)c1cccs1	3%
33	3.7%	/	/	CN(C)S(=O)(=O)c1cccc(NC(=O)CCCC2CCCCC2)c1	1%
34	1.5%	-4	0%	Cc1nn(C)cc1C(C)Nc1nc2nonc2nc1N1CCCCC1 (stereo unspecified)	16%
35	?	3	-3%	CCN(CC)c1nc2n(c(=O)n1)CCO2	-13%
36	2.1%	8	-47%	Cc1ccc2nc(NC(=O)CCCc3nc4ccccc4s3)sc2c1	9%
37	7.4%	-1	-43%	Cc1ccc(OCC(=O)N2CCCCC2)c(Br)c1	10%
38	-0.8%	-1	4%	CN1CCC(NC(=O)Nc2ccc(Br)cc2)CC1	18%
39	3.2%	-5	10%	Cc1c(C#N)c(N)nc(Cl)c1C#N	-3%
40	-0.8%	/	0%	CCC(=O)N1CCN(c2ccc(NC(=O)COc3ccc(CC)cc3)cc2)CC1	6%
41	0.7%	5	-2%	Cc1ccc([N+](=O)[O-])cc1N	0%
42	?	-3	?	CC(=O)Nc1cccc(Nc2nc(-c3ccccc3)nc3ccccc23)c1	1%
43	-0.2%	-12	-8%	CCN(CC)c1ccc(/C=N/NS(=O)(=O)c2ccc(C)c([N+](=O)[O-])c2)cc1	-19%
44	-2.6%	/	-1%	COc1ccc(CCN2CC(C(=O)N(C)Cc3ccccc3OC)CCC2=O)cc1 (stereo unspecified)	1%
45	-0.2%	2	-3%	CC1CCN(c2ccc([N+](=O)[O-])cc2C(N)=O)CC1	2%
46	-1.9%	-12	-1%	O=C(Cc1cccs1)OCC(=O)c1ccco1	-4%
47	1.5%	/	-2%	C/C(=N/NC(=O)C1CCCN1C(=O)c1ccc([N+](=O)[O-])cc1)c1ccc(Br)cc1 (stereo unspecified)	-3%
48	0.0%	-19	17%	COc1ccc(C(C(=O)NC2CCCC2)N(Cc2ccccc2)C(=O)c2nsc(Cl)c2Cl)cc1 (stereo unspecified)	-5%
49	0.6%	-1	-36%	CCN(CC)c1ccc(NC(=S)NCC2CCCO2)cc1 (stereo unspecified)	1%
50	3.3%	-5	8%	CCOc1cc(NC(=S)Nc2ccc(Cl)cc2)c(OCC)cc1NC(C)=O	-16%
51	?	/	-2%	Oc1c(Br)cc(Br)cc1/C=N/Nc1ccc(Cl)nn1	?
52	1.2%	11	0%	CSCCNCc1c(C(=O)N2CCOCC2)nc2c(C)cccn12	-10%
53	-4.8%	2	-9%	C=CCn1c(SCC(=O)c2[nH]c(C)c(C(=O)OCC)c2C)nc2scc(-c3ccccc3)c2c1=O	-28%
54	1.7%	-3[21.1 µM]	-1%	COc1ccc(Cl)cc1NC(=O)C(=O)NCc1ccncc1	13%
55	-1.6%	-3	-16%	O=C(c1ccc(Br)o1)N1CCN=C1SCc1cccnc1	-20%
56	0.1%	-5	-8%	CC(C)c1cc(CNC(=O)CCc2nnc(CCCCc3ccccc3)o2)on1	11%

# Going on with the list.
no.	Rango complex inh	GLA inh pH 4.5	miR-21 FLuc	molecule	Rango dissoc inh
57	-0.6%	/	/	O=C1CN(C(=O)COc2c(Cl)cccc2Cl)c2ccccc2N1	-6%
58	-0.9%	-3	-32%	N/C(=N\OC(=O)Cc1ccc(-c2ccccc2)cc1)c1ccccn1	-6%
59	1.0%	?	11%	CCCCNc1oc(-c2cccs2)nc1S(=O)(=O)c1ccccc1	-2%
60	-2.5%	7	4%	Cn1c(=O)n(C)c2cc(S(=O)(=O)NCc3ccco3)ccc21	0%
61	1.9%	/	/	CC(=O)c1c(C)[nH]c(C(=O)N2CCN(S(=O)(=O)c3ccc(F)c(F)c3)CC2)c1C	-19%
62	0.9%	1	-4%	Cc1ccc(-n2nc(C)c(C3(O)C(=O)N(C)c4ccccc43)c2N)cc1 (stereo unspecified)	-2%
63	-0.2%	2	-1%	COc1ccc(OC)c(NC(=O)CCNS(=O)(=O)c2ccc3c(c2)c(=O)n(C)c(=O)n3C)c1	-6%
64	?	-7	-15%	COC(=O)c1sc(N2C(=O)C(O)=C(C(=O)c3ccc(C)o3)C2c2ccc(F)cc2)nc1C (stereo unspecified)	?
65	0.6%	/	/	Cc1noc(C)c1C(=O)OC(C)C(=O)N1CCc2ccccc21 (stereo unspecified)	5%
66	1.3%	0	-24%	CC(=O)C1=C(C)OC(N)=C(C#N)C1c1cc2cc(C)c(C)cc2nc1Cl (stereo unspecified)	-15%
67	3.1%	/	/	CC(C)N(C(=O)[C@H]1C[C@H](CC(=O)NCCCN(C)C)C(=O)N2CCc3c([nH]c4cc(-c5ccco5)ccc34)[C@]12C)C(C)C	6%
68	1.8%	0	2%	Cn1cccc1Cc1nnc(SCC(=O)NCCc2ccccc2)n1C	-10%
69	-0.3%	-16	-25%	Cc1ccc(OCc2ccc(C(=O)Nc3ccc(C(N)=O)cc3)o2)c([N+](=O)[O-])c1	-22%
70	0.7%	/	/	COc1ccc(NC(=O)C2CC3C=CC2C3)c([N+](=O)[O-])c1 (stereo unspecified)	?
71	3.0%	/	/	Cc1cc(C(=O)NC2CCCC(C)C2C)c2ccccc2n1 (stereo unspecified)	-11%
72	1.7%	/	/	C[C@H](NS(=O)(=O)c1ccc(Cl)cc1)C(=O)OCC(=O)N1CCOCC1	-2%
73	1.1%	/	-28%	N/C(=N\OC(=O)c1cccc(F)c1)c1cccc([N+](=O)[O-])c1	6%
74	-0.2%	/	/	CC(C)Cn1c(N)c(C(=O)COC(=O)C2CCCN2C(=O)c2cccs2)c(=O)n(C)c1=O (stereo unspecified)	4%
75	0.5%	-3	-19%	CN(C)C(=O)Nc1cnc2ccccc2c1	2%
76	5.3%	-6	-6%	CCCCCOc1ccc(C2C(C(C)=O)=C(C)Nc3ncnn32)cc1OC (stereo unspecified)	-5%
77	4.4%	3	-29%	O=C(Cc1ccccc1)Nc1ccc(-c2nnc(-c3ccco3)o2)cc1	9%
78	0.3%	1&3	0%	COC(=O)[C@@H]1C[C@H]2CC[C@H](O)C[C@H]2N1Cc1ccc(C(F)(F)F)cc1	2%
79	?	/	/	Cc1ccccc1CNC(=O)C(=O)NCC1CCCN1S(=O)(=O)c1ccccc1 (stereo unspecified)	8%
80	2.7%	/	/	CCN(CC)c1ccc(NC(=O)COC(=O)C2CCN(c3ccc(C(F)(F)F)cn3)CC2)cc1	9%
81	?	-9	11%	CC(C)CC(C)c1cc(N)nc2nc3ccccc3n12 (stereo unspecified)	-22%

# Source: PubChem BioAssay (National Center for Advancing Translational Sciences (NCATS))
